Screens from PubChem BioAssay.
MARV entry inh = Marburg virus entry inhibition; Marburg virus pseudotyped entry inhibition, cell reporter; control for the full effect not named in the record; about a third of the inactives were read at about 46 µM; Potency, µM (titrated, usually from 37.8 µM), inactives show at the top dose activity change, negative = inhibition, usual class: inhibitors; hit rate 1.8% among 300,000; AID 540276; active = well fitted inhibition curve with a large enough effect; inconclusive = small, poorly fitted or top-dose-only effect, or effect the other way; inactive = flat fitted curve, though single readings scatter; tested in HEK293 cells; about a fifth of its hits are not listed in these tables; further: on the % scale 0 is the no-effect control and ±100 the full control effect; luciferase read-out
LASV entry inh = blocks Lassa virus binding to or entry into cells; Lassa virus pseudotype entry inhibition, cell reporter; control for the full effect not named in the record; Potency, µM (series often up to 37.9 µM), inactives show at the top dose activity change, negative = inhibition, most hits filed as inhibitors; hit rate 1.2% among 300,000; active means well fitted inhibition curve with a large enough effect; inconclusive means small, poorly fitted or top-dose-only effect, or effect the other way; inactive means flat fitted curve, though single readings scatter; tested in HEK293 cells; further: on the % scale 0 is the no-effect control and ±100 the full control effect; nearly all actives have a fitted effect of over 50% in size; luciferase read-out
StopGo reporter = lowers the luciferase signal of an FMDV 2A StopGo reporter. hit rate 1.2% among 410,000. human cells with a luciferase reporter of 2A StopGo recoding; control for the full effect not named in the record. AID 1159524. Potency, µM (highest dose often 57.9 µM), for the others: at the highest dose signal change, negative = less light; active = well fitted falling curve with a large enough effect; inconclusive = small, poorly fitted or top-dose-only effect; inactive = no such curve, though single readings can be large or run the other way; tested in HEK293T cells; further: on the % scale 0 is the no-effect control and ±100 the full control effect; nearly all actives have a fitted effect of over 45% in size; luciferase light after 4 h
RE007 growth inh = less growth of the S. pombe RE007 Vpr strain. S. pombe RE007 Vpr strain, BacTiter-Glo ATP luminescence, 24 h; control for the full effect not named in the record. hit rate 0.21% among 360,000. AID 651644. Potency, µM (series often up to 92.2 µM), without a hit: at the top dose activity change, negative = less growth; active = well fitted falling curve with a large enough effect; inconclusive = small, poorly fitted or top-dose-only effect; inactive = no such curve, though single readings can be large or run the other way;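 further: on the % scale 0 is the no-effect control and ±100 the full control effect; nearly all actives have a fitted effect of over 50% in size; the assay follows cell death caused by Vpr and the record does not say whether a fall means rescue or toxicity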
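Fission yeast RE007 carrying one integrated HIV-1 vpr copy, seeded at OD 0.01 in PMG+AL medium with 23 nL pinned compound. Grown 24 h at 30 degrees; viability read by BacTiter-Glo luminescence after 5 min.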
Cruzain Triton = blocks cruzain activity in presence of Triton detergent | P25779 | purified cruzain, Z-FR-AMC fluorescence, 0.01% Triton | Potency, µM, for inactives: max response, negative = inhibition, hits mostly inhibitors | hit rate 0.43% among 200,000 | AID 1478; active means well fitted curve in the direction sought with a large enough effect; inconclusive means small, poorly fitted or top-dose-only effect, or another doubt; inactive means no such curve, though single readings can be large; an effect the other way counts as inactive or inconclusive;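 further: plate controls were neutral wells for no effect and buffer without enzyme for full effect; nearly all actives have a fitted effect of over 40% in size; top concentration of the series not given in the record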
Target sequence (P25779 123-467 limits assumed): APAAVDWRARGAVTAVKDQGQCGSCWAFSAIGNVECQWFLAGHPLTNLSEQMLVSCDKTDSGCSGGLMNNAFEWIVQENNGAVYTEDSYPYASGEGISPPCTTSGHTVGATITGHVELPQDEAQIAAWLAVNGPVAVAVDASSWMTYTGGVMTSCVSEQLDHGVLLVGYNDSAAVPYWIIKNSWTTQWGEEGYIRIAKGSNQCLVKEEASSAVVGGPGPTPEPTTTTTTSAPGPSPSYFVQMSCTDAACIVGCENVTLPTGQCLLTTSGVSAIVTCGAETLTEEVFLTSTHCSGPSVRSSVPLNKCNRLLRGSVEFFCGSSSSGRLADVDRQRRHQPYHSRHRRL
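Compounds were screened in titration against cruzain (1.5 nM) with 0.01% Triton X-100 to counter colloidal aggregation. Activity was the AMC fluorescence increase over 60 s after adding 2 uM Z-FR-AMC at pH 5.5.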
NS1 function inh = blocks influenza NS1 protein function; S. cerevisiae slowed by influenza A NS1, growth recovery by OD600; Potency, µM (titrated, usually from 46.1 µM), without a hit: at the highest dose activity, positive = more growth; hit rate 0.4% among 270,000; further: actives are rising curves; nearly all actives have a fitted effect of over 50% in size
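OD600 was taken as the measure of yeast growth restored by compound in an NS1-expressing S. cerevisiae strain. Cells had been washed out of glucose medium and diluted 1:100 into galactose -URA medium, pH 6.0.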
Cruzain noTriton = inhibitors of Trypanosoma cruzi cruzain without detergent; purified cruzain, Z-FR-AMC fluorescence, no detergent; Potency, µM, without a hit: max response, negative = inhibition, most hits filed as inhibitors; hit rate 2.3% among 200,000; AID 1476; active means well fitted curve in the direction sought with a large enough effect; inconclusive means small, poorly fitted or top-dose-only effect, or another doubt; inactive means no such curve, though single readings can be large; an effect the other way counts as inactive or inconclusive;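 further: plate controls were enzyme without inhibitor for no effect and buffer without enzyme for full effect; nearly all actives have a fitted effect of over 40% in size; top concentration of the series not given in the record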
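Detergent-free condition (0.00005% Triton X-100) in acetate buffer pH 5.5 with DTT. 1.5 nM enzyme and compound were pre-mixed 15 min, then 2 uM Z-FR-AMC substrate added; reaction progress from fluorescence change between first and third reads (60 s).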
SARS PLP yeast = inhibitors of SARS-CoV papain-like protease in yeast | S. cerevisiae expressing SARS-CoV PLpro, growth rescue; control for the full effect not named in the record | Potency, µM (doses to about 32.9 µM), for the others: top-dose activity, positive = growth rescue | hit rate 0.19% among 330,000 | AID 485353; further: 0% is about no effect; nearly all actives have a fitted effect of over 55% in size; growth read by luminescence after 48 h
Active calls of the source: *; ? = inconclusive; . = no result given; & = joins results of further samples; [ ] = remark or other dose. Unless noted, the call rests on the fitted dose curve; in most records, active means well fitted rising curve with a large enough effect; inconclusive means small, poorly fitted or top-dose-only effect; inactive means no such curve, though single readings can be large or run the other way. Potency means the concentration at half of the fitted maximal effect.

SMILES	MARV entry inh	LASV entry inh	StopGo reporter	RE007 growth inh	Cruzain Triton	NS1 function inh	Cruzain noTriton	SARS PLP yeast
Cc1oc(-c2ccc(Cl)cc2)nc1CS(=O)CC(=O)NCCCN1CCN(Cc2ccccc2)CC1 (stereo not given)	.	.	-13%	-12%	.	-2%	.	-1%
C/C(=N/NC(=O)CCC(=O)Nc1cccc(Cl)c1)c1ccc(C)cc1	-16%	0%	-22%	-6%	-2.5%	-5%	?	-12%
CCOc1ccc(N(CC(=O)Nc2cccc(OC)c2)S(C)(=O)=O)cc1	.	.	44%[activator]	1%	.	5%	.	5%
COc1ccccc1Nc1ncnc2c1nc1n2CCCC1	.	23%[46.1 µM]	36%[activator]	.	-2.1%	.	0%	.
CC1=Nc2ccc(Br)cc2C(c2ccccc2)N1CC(=O)O (stereo not given)	0%[46.1 µM]	.	-12%	-9%	.	3%	.	1%
COc1cccc(C2C(C(=O)c3cccs3)=C(O)C(=O)N2CCN2CCOCC2)c1OC (stereo not given)	9%[46.1 µM]	3%[46.1 µM]	12%	0%	.	-1%	.	-1%
CNC(=O)c1cc2cc(OC)ccc2oc1=N	?	-9%	-9%	-23%	-3.0%	-8%	0%	1%
Cc1nc(Sc2ccccc2)c(C#N)c(C)c1[N+](=O)[O-]	-9%[46.1 µM]	-20%	?	-5%	.	-61%	.	0%
COc1ccc(-c2nc3sc(CCNC(=O)Cc4ccc(Cl)cc4)c(C)n3n2)cc1	.	0%[46.1 µM]	4%	.	-2.0%	.	-11%	.
CNC(=O)c1cc2cccc(OC)c2oc1=O	-24%	-20%	27%	1%	-3.2%	4%	-7%	6%
O=C(NCC1CC1(Cl)Cl)Nc1ccc(Cl)c(Cl)c1 (stereo not given)	?	?	0%	-18%	.	-86%	.	-24%
CCNC(=O)c1ccc(C23CC4CC(CC(C4)C2)C3)o1	-4%[46.1 µM]	?	-18%	-9%	.	2%	.	-1%
C=C1CCN(C(C)C(=O)OC)S(=O)(=O)c2ccccc21 (stereo not given)	.	.	11%	6%	.	8%	.	1%
Cc1ccc(C)c2[nH]c(=O)c(CN(CCN3CCCC3)C(=O)Nc3cccc(Cl)c3)cc12	?	?	-14%	-14%	-22%	2%	25µM*	24%
COC(=O)/C(C(C)=O)=C(/C=C/C=C/N(C)C)N(C)C	3%	-2%	.	-4%	-10.0%	-1%	-4%	4%
CCn1c2ccc(C)cc2c2nnc(NN)nc21	?	-1%	-6%	-22%	-17%	-12%	-24%	-8%
CCCn1nnnc1NC(=O)c1cccs1	10%	-1%	14%	-11%	0.9%	0%	5%	-2%
CN(C(=O)COC(=O)c1ccccc1NCCO)C1CCS(=O)(=O)C1 (stereo not given)	-3%	17%[46.1 µM]	5%	7%	.	.	.	-6%
Cc1ccc(SCCC(=O)Nc2cc(C)on2)cc1	-1%[46.1 µM]	2%[46.1 µM]	-9%	9%	.	.	.	1%
Cc1cnc(C(=O)OC(C)C(=O)Nc2cccc3ccccc23)cn1 (stereo not given)	9%[46.1 µM]	12%	-9%	-6%	.	.	.	0%
O=S(=O)(Nc1cccc(-c2ccc(N3CCCCCC3)nn2)c1)c1cccc(F)c1	.	11%[46.1 µM]	43%&49%[activator]	2%	-3.5%	?	?	4%
COc1cc([N+](=O)[O-])cc(CN2CCCCC2)c1O	23%	0%	0%	-2%	-2.3%	15%	2%	6%
O=C(Cc1ccc([N+](=O)[O-])cc1)N1CCN(Cc2ccc3c(c2)OCO3)CC1	0%[14.2 µM]	8%	-25%	-2%	.	1%	.	0%
COCCN(C(=O)c1csnn1)C(C(=O)NC1CCCC1)c1ccccc1F (stereo not given)	?	8%	-11%	82%	.	4%	.	2%
Cn1ncc(Cl)c1C(=O)N1CCN(S(=O)(=O)c2ccc(Cl)s2)CC1	0%	1%	-13%	-29%	.	1%	.	3%
COc1ccc(C2C(=O)N(C3CCCCC3)CC(=O)N2CCc2ccc(OC)c(OC)c2)cc1 (stereo not given)	.	4%[46.1 µM]	-5%	.	0.8%	.	10%	.
CCOc1ccc(C(C)=O)cc1CC(C(N)=O)C(N)=O	?	2%	-5%	3%	2.7%	13%	6%	9%
CC(=O)CSc1nnc(-c2ccc(S(=O)(=O)N3CCOCC3)cc2)n1C	10%[46.1 µM]	3%[46.1 µM]	-6%	-1%	.	2%	.	0%
CN1CCN(C(=O)C2CCCN(S(=O)(=O)c3ccc(Cl)cc3)C2)CC1 (stereo not given)	-4%	-2%	-19%	-17%	.	6%	.	9%
COc1cc2c(cc1OC)CN(C(=O)c1cc3ccccc3oc1=O)CC2	-25%	-20%	-2%	5%	-2.2%	2%	-4%	2%
COCc1cc(C)nc(Nc2ccccc2OC)c1C#N	.	.	-19%	4%	.	-7%	.	-3%
Cc1cc2oc(=O)cc(CN3CCCc4ccccc43)c2cc1C	?	-26%	7%	2%	-7.0%	-73%	?	-44%
Cc1nc2ccccc2c(=O)n1CCc1ccc(O)cc1	23%[46.1 µM]	-1%[46.1 µM]	-13%	1%	.	-2%	.	0%
Cc1cccc(NC(=O)CSc2nc(-c3ccccc3)cc(=O)[nH]2)c1C	.	27%[46.1 µM]	-7%	.	-0.2%	.	-7%	.
COC(=O)c1ccc(CSc2nnc(-c3ccncc3)o2)cc1	14%[46.1 µM]	?	7%	12%	.	-2%	.	1%
COc1cccc(/C=N/NC(=O)c2cc(-c3ccccn3)nc3ccccc23)c1O	?	?	3%	12%	.	.	.	-6%
CCc1c(C)sc(NC(=O)C2CC2c2ccccc2)c1C(N)=O (stereo not given)	3.3µM*	2.9µM*	9%	-3%	-0.9%	-12%	-2%	-1%
CC(C)Sc1cc(N2CCCC2)nc(-c2ccc(F)cc2)n1	5%	-7%	-3%	5%	-3.4%	0%	-7%	3%
COc1cc(OC)cc(C(=O)NCCC(c2ccccc2)c2ccccc2)c1	.	.	-12%	5%	.	3%	.	1%
Cc1ccc(NC(=O)c2cccc(NC(=O)CCC(=O)O)c2)cc1C	-26%[46.1 µM]	-17%	4%	-11%	.	.	.	-1%
CCCOc1ccc(C2SCC(=O)Nc3c2c(C)nn3-c2cccc(C)c2)cc1OC (stereo not given)	22%[46.1 µM]	-10%[46.1 µM]	-28%	.	-6.9%	.	11%	.
COc1ccc(CCNc2oc(-c3ccc(OC)c(OC)c3)nc2P(=O)(OC)OC)cc1OC	?	-28%	-17%	7%	?	-10%	-1%	-6%
O=C(C1CCC1)N1CCc2cc(S(=O)(=O)N3CCCCC3)ccc21	23%	-10%	-19%	21%	-1.4%	2%	-11%	1%
O=C(CC1C(=O)NCCN1Cc1cccc(C(F)(F)F)c1)NC1CCOCC1 (stereo not given)	1%	2%	-10%	6%	.	6%	.	0%
CN(Cc1cnn(C)c1)C(=O)CC1C(=O)NCCN1Cc1cccc(Oc2ccccc2)c1 (stereo not given)	7%[46.1 µM]	-8%	11%	6%	.	1%	.	5%
Cn1cnnc1SC1c2cccc3cccc(c23)C1NS(=O)(=O)c1ccccc1 (stereo not given)	2%	?	4%	10%	-1.8%	5%	10%	-8%
CN(Cc1ccccc1)C(=O)CN1CCN(C(c2ccccc2)c2ccccc2)CC1	?	?	-29%	2%	.	-6%	.	0%
O=C(N/N=C/c1ccc(N2CCOCC2)s1)c1ccccc1Br	?	7%	-9%	10%	.	.	.	1%

Part of the list above, with two lines to a compound:
Each structure is followed by: MARV entry inh, LASV entry inh, StopGo reporter, RE007 growth inh, Cruzain Triton, NS1 function inh, Cruzain noTriton, SARS PLP yeast
CCc1c(C)sc(NC(=O)C2CC2c2ccccc2)c1C(N)=O (stereo not given)
    3.3µM*, 2.9µM*, 9%, -3%, -0.9%, -12%, -2%, -1%
CC(C)Sc1cc(N2CCCC2)nc(-c2ccc(F)cc2)n1
    5%, -7%, -3%, 5%, -3.4%, 0%, -7%, 3%
COc1cc(OC)cc(C(=O)NCCC(c2ccccc2)c2ccccc2)c1
    ., ., -12%, 5%, ., 3%, ., 1%
Cc1ccc(NC(=O)c2cccc(NC(=O)CCC(=O)O)c2)cc1C
    -26%[46.1 µM], -17%, 4%, -11%, ., ., ., -1%
CCCOc1ccc(C2SCC(=O)Nc3c2c(C)nn3-c2cccc(C)c2)cc1OC (stereo not given)
    22%[46.1 µM], -10%[46.1 µM], -28%, ., -6.9%, ., 11%, .
COc1ccc(CCNc2oc(-c3ccc(OC)c(OC)c3)nc2P(=O)(OC)OC)cc1OC
    ?, -28%, -17%, 7%, ?, -10%, -1%, -6%
O=C(C1CCC1)N1CCc2cc(S(=O)(=O)N3CCCCC3)ccc21
    23%, -10%, -19%, 21%, -1.4%, 2%, -11%, 1%
O=C(CC1C(=O)NCCN1Cc1cccc(C(F)(F)F)c1)NC1CCOCC1 (stereo not given)
    1%, 2%, -10%, 6%, ., 6%, ., 0%
CN(Cc1cnn(C)c1)C(=O)CC1C(=O)NCCN1Cc1cccc(Oc2ccccc2)c1 (stereo not given)
    7%[46.1 µM], -8%, 11%, 6%, ., 1%, ., 5%
Cn1cnnc1SC1c2cccc3cccc(c23)C1NS(=O)(=O)c1ccccc1 (stereo not given)
    2%, ?, 4%, 10%, -1.8%, 5%, 10%, -8%
CN(Cc1ccccc1)C(=O)CN1CCN(C(c2ccccc2)c2ccccc2)CC1
    ?, ?, -29%, 2%, ., -6%, ., 0%

Rows were taken by chance; any-hit rate near 4.8%.
